# Rce1 inh = blocks yeast Ras-converting enzyme; yeast membranes, quenched prenylated peptide cleavage fluorescence; AID 2563; 0.27% of 290,000 active; calls only; Q03530;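 active = fall in fluorescence gain of 50% or more versus controls, with final raw signal at or below 3038400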;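 also: plate controls were neutral control wells for no effect and wells lacking membranes for full effect; tested at 10 µM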
# Target sequence (Q03530 whole entry, looked up): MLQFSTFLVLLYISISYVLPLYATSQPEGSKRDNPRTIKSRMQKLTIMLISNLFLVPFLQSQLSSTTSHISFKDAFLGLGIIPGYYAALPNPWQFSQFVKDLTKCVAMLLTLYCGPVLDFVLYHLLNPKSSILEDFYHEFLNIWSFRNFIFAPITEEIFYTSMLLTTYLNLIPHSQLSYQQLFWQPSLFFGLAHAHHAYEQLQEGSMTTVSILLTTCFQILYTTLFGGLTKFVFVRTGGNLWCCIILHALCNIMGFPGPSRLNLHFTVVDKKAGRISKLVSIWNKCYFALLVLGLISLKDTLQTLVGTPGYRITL
# Yeast UUG start = yeast start codon fidelity modulation; 0.13% of 350,000 active; activity score, % at 18.7 µM; S. cerevisiae UUG-firefly luciferase reporter, luminescence/redox ratio;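 active = replicate mean at a twofold rise or more, about +100% in these data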;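 also: firefly luciferase made from a UUG start codon reports start codon fidelity; reporter light over untreated wells divided by growth signal over untreated wells; some hits fall short of that in this replicate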
# eIF4H inh = inhibitors of RNA binding by human eIF4H; Q15056; eIF4H fluorescence polarization binding assay; inhibition, % at 35 µM; 0.94% of 290,000 active; AID 2012;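 active = 50% or more with normal probe brightness, or confirmed in later tests; about a fifth of its hits are not listed in these tables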;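 also: calls also rest on retests at 20 µM and on dose response follow-up; 0% = protein and probe with vehicle and 100% = probe without protein; strong numbers were not always called active; many hits fall short of the cut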
# PABP polyA inh = PABP-poly(A) binding inhibition; P11940; PABP-poly(A) RNA binding, fluorescence polarization; inhibition, % at 35 µM; 1% of 290,000 active;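 active = 50% or more with normal probe brightness, or confirmed in later tests; about a fifth of its hits are not listed in these tables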;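 also: calls also rest on retests at 20 µM and on dose response follow-up; controls were probe without protein and protein plus probe with vehicle; some compounds called inactive have numbers as strong as hits; many hits fall short of the cut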
# Target sequence (P11940 whole entry, looked up): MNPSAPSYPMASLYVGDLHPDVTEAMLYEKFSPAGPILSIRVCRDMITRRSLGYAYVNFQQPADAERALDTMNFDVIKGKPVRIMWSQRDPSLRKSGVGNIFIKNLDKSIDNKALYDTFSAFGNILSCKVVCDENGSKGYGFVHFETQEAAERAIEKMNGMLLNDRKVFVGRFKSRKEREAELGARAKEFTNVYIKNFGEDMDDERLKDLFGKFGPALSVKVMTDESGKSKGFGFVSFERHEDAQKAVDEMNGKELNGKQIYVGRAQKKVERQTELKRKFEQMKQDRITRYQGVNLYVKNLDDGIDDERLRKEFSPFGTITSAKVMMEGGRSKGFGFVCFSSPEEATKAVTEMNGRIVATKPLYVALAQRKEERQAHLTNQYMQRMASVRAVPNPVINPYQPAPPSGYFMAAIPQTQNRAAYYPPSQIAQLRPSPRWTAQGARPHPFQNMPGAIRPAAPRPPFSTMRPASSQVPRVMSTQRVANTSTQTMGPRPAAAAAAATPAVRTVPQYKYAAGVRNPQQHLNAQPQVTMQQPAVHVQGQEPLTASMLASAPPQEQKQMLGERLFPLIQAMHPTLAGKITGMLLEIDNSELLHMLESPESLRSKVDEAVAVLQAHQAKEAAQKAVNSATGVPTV
# CSC inhib = cancer stem cell inhibition; cancer stem cell-like cells viability, luminescence; inhibition, % at 7.5 µM; 1.1% of 300,000 active; AID 2717;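 active = mean at 75% or more and at least half the replicates too; tested in HMLE shEcad cells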;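 also: 0% = median of negative and 100% = median of positive control wells; the first replicate is given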
# MT1-MMP act inh = inhibitors of human MT1-MMP activation. HT1080 RFP-PRO-GFP cells, GFP/RFP ratio fluorescence, overnight; percent of plate control window, DMSO zero. 0.061% of 360,000 active. GFP/RFP ratio change, % at 20 µM. AID 651647. P50281;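 active = GFP/RFP ratio change of at least 30% with cell ATP level not reduced by more than half and red fluorescence within 50% of control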; also: strong numbers were not always called active
#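 Assay system: HT1080 cells carrying an RFP-PRO-GFP reporter | Dosing: Single dose of 20 µM compound, 1% DMSO final | Incubation: Cells overnight before dosing, compound overnight, 37 °C, 5% CO2 | Evaluation: GFP/RFP fluorescence ratio | Control set: DMSO and RFP-L50D-GFP cell wells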
# HIV Env fusion = HIV envelope-mediated fusion inhibition; AID 651610; inhibition, % at 12.3 µM; 1.1% of 360,000 active; HeLa-JRFL Env/CEM21 cell fusion, luciferase;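 active = mean replicate inhibition score of at least 50 and every replicate individually at or above 50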;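 also: 0% = plate neutral controls and 100% = maraviroc near 300 nM; one replicate is shown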
# eIF4H inh retest = also measured in eIF4H inh; calls as there; inhibition, %; compound at 20 µM; confirmation average;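 mean of two retest wells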
# PABP polyA inh retest = recorded beside PABP polyA inh, whose call it bears; inhibition, %; compound at 20 µM; confirmation repeats;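 mean of two retest wells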
# MT1-MMP act inh RFP = further read-out of MT1-MMP act inh, marked with its call; RFP signal change, %; measured here: RFP expression control read;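 0 = vehicle wells; hits needed this value within 50% of zero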
# Active calls of the source: *; i = inactive; nt = no result given.
SMILES,Rce1 inh,Yeast UUG start,eIF4H inh,PABP polyA inh,CSC inhib,MT1-MMP act inh,MT1-MMP act inh RFP,HIV Env fusion,others
O=C(CCNS(=O)(=O)c1cccc2nonc12)NC1CCCc2ccccc21 (configuration not stated),nt,-21,-6,5,-11,-11,-3,-3,
CCC1=C(OC(=O)N(CC)CC)N2C(=O)OC(=NCC(=O)OC)[C@]2(Cc2ccccc2)[C@H]2C1=CC[C@H]1C(=O)N(c3ccccc3)C(=O)[C@H]12,i,-6,7,12,5,-1,0,-52,
CC(=O)c1ccc(OCCCC(=O)OCC(=O)Nc2ccc3[nH]c(=O)[nH]c3c2)cc1,nt,nt,nt,nt,2,1,2,-13,
CC1CCN(CCCCOc2ccccc2Br)CC1,i,nt,2,-6,39,8,9,12,
Cc1cc(=O)n2nc(N3CCCC(C(=O)NCc4cccc(Cl)c4)C3)sc2n1 (configuration not stated),i,-14,-10,9,-4,1,0,-3,
CCCCn1c(NCc2cccs2)nc2ccccc21,i,nt,11,7,2,-3,4,-3,
O=C(c1ccc(COc2c(F)c(F)cc(F)c2F)o1)N1CCN(c2ccc(Cl)cc2)CC1,i,-9,0,-7,-1,-10,-4,nt,
CC1CCN(S(=O)(=O)c2ccc3c(c2)C(=NO)c2cc(S(=O)(=O)N4CCC(C)CC4)ccc2-3)CC1,nt,-4,-11,0,113*,0,-7,nt,
CCOC(=O)c1oc2ccccc2c1NC(=O)c1ccc(S(=O)(=O)N2CCCC2)cc1,i,-8,-2,-6,1,-5,-4,nt,
Cc1cc(NC(=O)c2ccccc2)ccc1NC(=O)Cc1ccccc1,i,3,6,2,-8,3,5,-59,
O=C(NCCc1ccccn1)c1cc(-c2ccccc2Cl)nc2ccccc12,i,nt,-11,6,-6,0,-2,-4,
CCOC(=O)c1sc2nc(C)nc(SCC(=O)NC(C)CCc3ccccc3)c2c1C (configuration not stated),i,nt,-6,-11,-14,1,2,2,

# Among those listed so far, these have a furan ring, fused or not:
SMILES,Rce1 inh,Yeast UUG start,eIF4H inh,PABP polyA inh,CSC inhib,MT1-MMP act inh,MT1-MMP act inh RFP,HIV Env fusion,others
O=C(c1ccc(COc2c(F)c(F)cc(F)c2F)o1)N1CCN(c2ccc(Cl)cc2)CC1,i,-9,0,-7,-1,-10,-4,nt,
CCOC(=O)c1oc2ccccc2c1NC(=O)c1ccc(S(=O)(=O)N2CCCC2)cc1,i,-8,-2,-6,1,-5,-4,nt,

# Other records.
SMILES,Rce1 inh,Yeast UUG start,eIF4H inh,PABP polyA inh,CSC inhib,MT1-MMP act inh,MT1-MMP act inh RFP,HIV Env fusion,others
COc1ccc(CC(=O)NC(C)c2nnc(SCC(=O)Nc3nc(C)cs3)n2C)cc1 (configuration not stated),i,-6,2,-18,-14,-3,-1,-26,
CSc1nc(NCCOCCO)c2sc3nc(-c4ccco4)c4c(c3c2n1)CCC4,i,-13,94*,94*,-11,-2,-2,nt,
O=C(CN1CCCc2ccccc21)NC(=O)NC1CCCCC1,i,nt,37,-5,-15,-12,-4,-8,
Cc1cc(NC(=O)CN2CCCC(C)C2)n(-c2nc3ccccc3s2)n1 (configuration not stated),i,-14,-1,5,nt,13,-10,-27,
O=C(Cc1nnc(NC(=O)Nc2ccccc2F)s1)NCc1ccccc1,i,-19,-5,7,4,3,0,1,
Cc1c(C(=O)N2CCN(C/C=C/c3ccccc3)CC2)oc2c(F)cccc12,nt,-11,nt,nt,15,-1,5,18,
O=C(CN1C(=O)NC2(CCCCC2)C1=O)N1CCN(S(=O)(=O)/C=C/c2ccccc2)CC1,i,nt,nt,nt,-10,-3,1,2,
COCCn1c(SCC(=O)Nc2ccc3c(c2)CCC3)nc2ccccc2c1=O,i,-13,1,-9,-6,-4,-5,11,
COc1ccc(C(=O)NCC(c2cccs2)N2CCOCC2)cc1OC (configuration not stated),nt,-24,nt,nt,-5,1,1,nt,
COc1cc(C2(O)CCCCC2C)cc(OC)c1OC (configuration not stated),i,nt,-2,16,nt,15,3,nt,
O=C(COC(=O)c1cc(Cl)ccc1Cl)Nc1ccc2[nH]c(=O)[nH]c2c1,i,-16,nt,nt,nt,0,3,-3,
Cc1cccc(C(=O)OCC(=O)NC(C)CCc2ccccc2)c1 (configuration not stated),i,nt,-1,3,nt,3,2,-3,

# Some of these compounds in order of molar mass, ascending:
SMILES,Rce1 inh,Yeast UUG start,eIF4H inh,PABP polyA inh,CSC inhib,MT1-MMP act inh,MT1-MMP act inh RFP,HIV Env fusion,others
O=C(CN1CCCc2ccccc21)NC(=O)NC1CCCCC1,i,nt,37,-5,-15,-12,-4,-8,
Cc1cccc(C(=O)OCC(=O)NC(C)CCc2ccccc2)c1 (configuration not stated),i,nt,-1,3,nt,3,2,-3,
Cc1cc(NC(=O)c2ccccc2)ccc1NC(=O)Cc1ccccc1,i,3,6,2,-8,3,5,-59,
Cc1cc(NC(=O)CN2CCCC(C)C2)n(-c2nc3ccccc3s2)n1 (configuration not stated),i,-14,-1,5,nt,13,-10,-27,
COc1ccc(C(=O)NCC(c2cccs2)N2CCOCC2)cc1OC (configuration not stated),nt,-24,nt,nt,-5,1,1,nt,
Cc1c(C(=O)N2CCN(C/C=C/c3ccccc3)CC2)oc2c(F)cccc12,nt,-11,nt,nt,15,-1,5,18,
O=C(COC(=O)c1cc(Cl)ccc1Cl)Nc1ccc2[nH]c(=O)[nH]c2c1,i,-16,nt,nt,nt,0,3,-3,
O=C(Cc1nnc(NC(=O)Nc2ccccc2F)s1)NCc1ccccc1,i,-19,-5,7,4,3,0,1,
O=C(NCCc1ccccn1)c1cc(-c2ccccc2Cl)nc2ccccc12,i,nt,-11,6,-6,0,-2,-4,
COCCn1c(SCC(=O)Nc2ccc3c(c2)CCC3)nc2ccccc2c1=O,i,-13,1,-9,-6,-4,-5,11,
CCOC(=O)c1oc2ccccc2c1NC(=O)c1ccc(S(=O)(=O)N2CCCC2)cc1,i,-8,-2,-6,1,-5,-4,nt,
CSc1nc(NCCOCCO)c2sc3nc(-c4ccco4)c4c(c3c2n1)CCC4,i,-13,94*,94*,-11,-2,-2,nt,
CCOC(=O)c1sc2nc(C)nc(SCC(=O)NC(C)CCc3ccccc3)c2c1C (configuration not stated),i,nt,-6,-11,-14,1,2,2,
O=C(CN1C(=O)NC2(CCCCC2)C1=O)N1CCN(S(=O)(=O)/C=C/c2ccccc2)CC1,i,nt,nt,nt,-10,-3,1,2,

# Later entries:
SMILES,Rce1 inh,Yeast UUG start,eIF4H inh,PABP polyA inh,CSC inhib,MT1-MMP act inh,MT1-MMP act inh RFP,HIV Env fusion,others
COc1ccccc1C1=NOC(Cn2c(NCC3CCCO3)nc3c2c(=O)n(C)c(=O)n3C)C1 (configuration not stated),i,3,-8,8,3,-1,0,11,
Cc1cc(NC(=O)CCC(=O)N(C2CC2)C(C(=O)NC(C)(C)C)c2ccccc2Cl)no1 (configuration not stated),i,-5,0,8,5,-2,0,-10,
COc1ccc(CN2CCNC(=O)C2CC(=O)N(C)CCC2CCOCC2)cc1OC (configuration not stated),i,-5,-6,-5,-14,-1,4,13,
COc1cc(Br)ccc1C1CC(=O)C(C)C(c2ccc(Br)cc2OC)N1 (configuration not stated),i,-11,1,-6,35,2,5,13,
COC(=O)CSc1cc([N+](=O)[O-])ccc1NC(=O)OC,i,-8,-8,6,-1,4,6,5,
CN(C)c1nc(-c2ccccn2)nnc1-c1ccccc1,i,-30,-18,-8,-9,6,2,-195,
CC(C)(C)c1cc(C(=O)NNC(=O)Nc2cccc(Cl)c2)n(Cc2ccccc2)n1,i,nt,-16,-8,1,2,-8,10,
O=c1c2ccc([N+](=O)[O-])cc2ncn1CCOc1cccc(Br)c1,i,nt,-3,-12,-11,-1,1,-2,
O=c1c2ccccc2nc(SCc2ccc(F)cc2Cl)n1CCCN1CCOCC1,i,nt,-2,-7,-5,-7,-6,31,
CSc1ccccc1OC1CCN(Cc2ccccc2)CC1,i,-5,-1,11,26,-2,-3,16,
COCC(=O)NC1CC2CCC(C1)N2C(=S)Nc1ccccc1C(=O)OC (configuration not stated),i,nt,6,6,-5,-6,-1,5,
CCCCn1c(N)c(N(CCOC)C(=O)c2ccc(N(C)S(=O)(=O)c3ccc(C)cc3)cc2)c(=O)[nH]c1=O,i,nt,nt,nt,-7,0,2,-3,
COC(=O)[C@H](Cc1ccccc1)NC(=O)N1CCC(C)CC1,i,-15,9,7,12,9,4,-49,
O=c1[nH]c2ccc(NS(=O)(=O)c3ccc4ccccc4c3)cc2[nH]1,i,7,11,-5,-4,1,-5,4,
Cc1c(Cl)sn(-c2ccc(Cl)cc2)c1=O,nt,-10,-12,-16,nt,-4,-5,-38,
O=C1COc2ccc(C(=O)NCc3ccco3)cc2N1,i,-6,-6,-11,2,1,1,nt,
N=c1sccn1CC(=O)Nc1ccc(S(N)(=O)=O)cc1,i,14,-11,4,1,-1,2,-10,
O=C1/C(=C\c2ccco2)SC(=S)N1C1CCCCC1,i,nt,57*,6,1,nt,nt,nt,eIF4H inh retest=82*;PABP polyA inh retest=42
O=[N+]([O-])c1ccc(Oc2cccc3cccnc23)c(Cl)c1,i,-10,1,3,6,2,-3,20,
CCOC(=O)/C(C#N)=C/Nc1cc(C(C)(C)C)sc1C(C)=O,i,nt,-9,3,5,2,0,-5,
C=CCc1cc(C)ccc1OCCOCCC(C(=O)OCC)C(=O)OCC,i,nt,-4,-2,-6,-4,-3,nt,
COC(=O)c1c(C)oc2ccc(N(C(=O)c3ccncc3)S(=O)(=O)c3ccc(C)cc3C)cc12,i,nt,-8,-4,-10,-1,-25,37,
CCNC(=O)CSc1ncnc2sccc12,i,-12,44,15,-14,-6,2,nt,
O=C(N/N=C/c1ccncc1)c1cc(-c2ccc(Br)s2)[nH]n1,i,-21,-8,-5,nt,3,1,-2,
Cc1noc(C)c1CN1C(=O)c2ccccc2C1=O,i,-4,-15,-6,8,-1,2,3,
CCC(O)C1CCN(C(=O)c2cc(COc3ccc4ncccc4c3)on2)CC1 (configuration not stated),i,nt,3,7,0,-5,-27,35,
C=CCn1c(COc2ccc(F)cc2)nnc1SCC(=O)N1CC(=O)Nc2ccccc21,i,-8,-10,-6,-21,0,-1,-21,
O=C(Nc1nccs1)C1CC(=O)N(c2ccc(Cl)cc2)C1 (configuration not stated),i,-17,2,0,5,-3,2,-14,
Cc1ccc(NC(=S)NC2CCSc3ccccc32)cc1 (configuration not stated),i,-20,5,14,12,0,-1,-3,
Cc1ccc(OCC(O)CNCc2ccc(F)cc2)cc1 (configuration not stated),i,-18,-2,13,-15,4,2,4,
O=C(/C=C/c1ccccc1)Oc1ccccc1C(=S)N1CCOCC1,i,nt,-7,5,-2,-2,2,5,
C=CCc1cc(C)ccc1OCCn1ccnc1,i,-15,3,20,-29,6,6,-104,
COc1cccc(CNC(=O)CSc2ccc(-c3ccncc3)nn2)c1,i,nt,-3,58,-6,nt,nt,nt,eIF4H inh retest=0;PABP polyA inh retest=-3
O=C(CCN1C(=O)C2C3C=CC(C3)C2C1=O)NCc1cccnc1 (configuration not stated),i,0,-5,3,10,8,5,nt,
COc1ccc(CN(CC2CCC(C(=O)O)CC2)C(=S)Nc2cc(Cl)ccc2OC)cc1 (configuration not stated),i,nt,1,-4,8,-1,-1,3,
Cc1ccc2cc(CN(CC3CCCO3)C(=O)Nc3ccccc3F)c3nnnn3c2c1 (configuration not stated),i,nt,-24,3,-16,2,2,-9,
CC1CCc2nc3ccc(S(=O)(=O)N4CCC(C(=O)NC5CCCC5)CC4)cc3c(C(=O)O)c2C1 (configuration not stated),nt,-11,-1,29,nt,-2,6,-10,
CCN1C(=O)[C@H]2[C@H]3CN=C(SC)N3[C@@](C)(C(=O)OC)[C@H]2C1=O,nt,-26,nt,nt,nt,3,2,9,
OC(CNCCc1ccccc1)COc1ccc(OCC(O)CNCCc2ccccc2)cc1 (configuration not stated),i,-7,-1,8,14,-3,-8,-16,

# Screening results (PubChem)

# Random draw from the library, and some 2.9% of all compounds hit somewhere here.
